# Screens deposited in PubChem BioAssay by National Center for Advancing Translational Sciences (NCATS).
# VDR inh – Inhibitors of the vitamin D receptor (VDR): qHTS. Potency, µM, for the others: max response, negative = inhibition, actives largely listed as inhibitors. VDR-SRC2-3 peptide fluorescence polarization, 2 h. hit rate 0.93% among 400,000. AID 504847, 2011; active means well fitted inhibition curve with a large enough effect; inconclusive means small, poorly fitted or top-dose-only effect, or another doubt; inactive means no such curve, though single readings can be large or run the other way; further: series mostly up to about 120 µM
# Target sequence (P11473 whole entry, looked up): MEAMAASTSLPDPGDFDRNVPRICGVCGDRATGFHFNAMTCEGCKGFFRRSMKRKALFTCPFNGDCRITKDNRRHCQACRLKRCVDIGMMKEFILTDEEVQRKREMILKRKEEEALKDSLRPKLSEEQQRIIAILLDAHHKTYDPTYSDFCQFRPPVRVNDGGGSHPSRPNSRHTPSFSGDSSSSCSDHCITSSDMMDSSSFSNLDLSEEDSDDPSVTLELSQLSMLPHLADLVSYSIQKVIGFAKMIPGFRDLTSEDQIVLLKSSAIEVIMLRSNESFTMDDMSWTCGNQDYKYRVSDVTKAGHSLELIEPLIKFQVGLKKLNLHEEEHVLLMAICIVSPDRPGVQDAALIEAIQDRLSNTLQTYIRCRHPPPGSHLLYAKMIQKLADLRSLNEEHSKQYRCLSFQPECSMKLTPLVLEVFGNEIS
#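 Two reagent solutions held at 4 deg C in the dark were dispensed, compounds pinned at 23 nl, and the mixture incubated 2 h at room temperature. Read-out: fluorescence polarization of VDR–SRC2-3 peptide binding.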
# Starred values were filed as active, the others as inactive; ? = inconclusive; [ ] = another dose, or the depositor's remark. On the % scale 0 is the no-effect control and ±100 the full control effect; potency means the concentration at half of the fitted maximal effect. This is a subset (hit frequency here may not be typical).
mol	VDR inh
CCCCN1C(=O)CCC(C(=O)O)C1c1ccc([N+](=O)[O-])cc1 (stereo not drawn)	-7.3%
Cc1ccc(C)c(N2CCN(C(=O)C(CC(C)C)NS(=O)(=O)c3ccc4nc(C)sc4c3)CC2)c1 (stereo not drawn)	6.1%
Cc1cc(C(=O)OCC(=O)Nc2cc(S(=O)(=O)N3CCOCC3)ccc2Cl)c(C)o1	0.6%
Nc1cc(=O)[nH]c(=O)n1CCc1ccccc1	4.2%
Cc1nc2ccccc2n1CC(O)COc1ccc(Br)cc1 (stereo not drawn)	-15.4%
O=C1SC(SC(=Nc2ccccc2)Nc2ccccc2)C(=O)N1c1ccccc1 (stereo not drawn)	89.1µM*
Cc1ccc(C(=O)/C=C/Nc2ccc3c(c2)OCO3)cc1	12.1%
CCCc1nnc(SCC(=O)Nc2nc(C)cs2)n1CCOC	-4.2%
COc1ccc2sc(SCCCS(=O)(=O)O)[n+](CCCS(=O)(=O)[O-])c2c1	?
O=C(CCl)NC(Cc1ccccc1)C(=O)OCC(=O)c1ccc(-c2ccccc2)cc1 (stereo not drawn)	-0.7%
O=c1n(Cc2ccc(Cl)cc2)nc2n1-c1ccccc1OC2	8.8%
C/C(=N\NC(=O)Cc1cccc2ccccc12)c1ccncc1	-0.4%
CCc1nn(C(C)C(=O)NCc2cccc(Cl)c2)c(=O)c2cc3occc3n12 (stereo not drawn)	13.0%
COc1cc(Cl)ccc1NC(=S)N(CCN1CCOCC1)C1CCN(C(C)=O)CC1	-1.6%
CCOc1ncccc1C(=O)Nc1cccc(-c2nnc3n2CCCCC3)c1	5.9%
CCCCC(=O)Nc1ccc(C(=O)Nc2cc(C(F)(F)F)ccc2Cl)cc1	-2.0%
Cc1c(C(=O)N(Cc2ccccc2)Cc2cccnc2)cnn1-c1ccc(F)cc1	0.5%
O=C(c1ccsc1)N1CCCC(N2CCN(c3ccccc3F)CC2)C1 (stereo not drawn)	-17.5%
CCOC(=O)CSc1nc(C2CC2)cc(-c2ccc(Cl)cc2)c1C#N	-14.0%
O=C(COC(=O)c1ccccc1C(=O)OCC(=O)NCCc1c[nH]c2ccccc12)NCCc1c[nH]c2ccccc12	4.2%
CCOc1ccc(C(NC(=O)/C=C/c2ccco2)c2ccc(OC)c(OC)c2)cc1 (stereo not drawn)	11.6%
C=CCn1c(O)c(N=NC(=S)Nc2ccc(OC)c(Cl)c2)c2ccccc21	-9.0%
CCC(CO)NCc1ccc(OC2CCCC2)cc1 (stereo not drawn)	-14.8%
Cc1ccc(OCc2ccc(-c3nc(C#N)c(NCc4ccccc4Cl)o3)o2)cc1	2.8%
O=C(Cc1ccccn1)c1ccc(Cl)cc1	-8.5%
COc1ccc(NC(=O)Cc2ccc(NC(=O)N3CCCCc4ccccc43)cc2)c(OC)c1	1.4%
N#Cc1cccc(NS(=O)(=O)c2ccc(S(=O)(=O)N3CCOCC3)cc2)c1	2.8%
Cc1ccccc1NS(=O)(=O)c1ccc(C2CNC(=O)C2)cc1 (stereo not drawn)	-12.8%
COc1ccc(NC(C)=O)cc1C	-2.7%
COc1cccc(/C=N/NC(=O)c2nc(-c3ccccc3)cc(-c3ccccc3)n2)c1	3.4%

# A run of entries from further up, for reference:
mol	VDR inh
Cc1c(C(=O)N(Cc2ccccc2)Cc2cccnc2)cnn1-c1ccc(F)cc1	0.5%
O=C(c1ccsc1)N1CCCC(N2CCN(c3ccccc3F)CC2)C1 (stereo not drawn)	-17.5%

# More results follow.
mol	VDR inh
COC(=O)c1ccc(C(=O)OC)c(NS(C)(=O)=O)c1	8.0%
Nc1nc(NCc2ccco2)nc(Nc2ccccc2)c1[N+](=O)[O-]	-2.7%
O=c1cc(N2CCN(c3ccccc3)CC2)[nH]c(=O)n1C1CCCCC1	5.7%
COc1ccc(C(=O)Nc2nnc(-c3cccs3)s2)cc1	10.8%
O=C(Cn1cccc1C(=O)c1ccccc1)NCc1cccc(Cl)c1	-20.6%
COc1ccc(NC(=O)Cn2cc(S(=O)(=O)Cc3ccc(F)cc3)c3ccccc32)cc1OC	12.2%
COc1ccc(N(CC(=O)NCc2ccco2)S(=O)(=O)c2ccc(OC)c(OC)c2)cc1	5.5%
Cc1ccc(NC(=O)C2CCN(S(=O)(=O)c3cccs3)CC2)cc1C	7.9%
Cc1cc(=O)[nH]c2c(C)cc(S(=O)(=O)N3CCOCC3)cc12	19.4%
CC1CCCC(NC(=O)c2cc(S(=O)(=O)N3CCOCC3)ccc2F)C1C (stereo not drawn)	30.4%[activator]
Cc1cccc(NC(=O)CN2C(=O)COc3ccc(Cl)cc32)c1C	-10.8%
Cc1nn(-c2ccccc2)c(C)c1S(=O)(=O)O	41.0%[activator]
COCCCNC(CC(=O)Nc1ccc(OC)cc1OC)C(=O)O (stereo not drawn)	-22.7%
CC(C)CC(OC(=O)CC1Sc2ccccc2NC1=O)C(=O)NC1CCCC1 (stereo not drawn)	-15.4%
O=C(O)c1ccccc1N1C(=O)C2C3c4ccccc4C(Br)(c4ccccc43)C2C1=O (stereo not drawn)	-10.2%
OC1(c2ccc3ccccc3c2)CCN(Cc2ccccc2)C1 (stereo not drawn)	7.7%
O=C(CSc1nc2ccccc2c(=O)[nH]1)N1CCN(S(=O)(=O)c2ccccc2)CC1	-5.9%
Cc1ccc(CNS(=O)(=O)c2c(C)[nH]c(=O)[nH]c2=O)cc1	-1.5%
COc1ccccc1CN1[C@@H](CC(=O)O)c2cc(F)ccc2S1(=O)=O	-0.9%
COc1cc(CC(=O)OCC(=O)NC2CCCCC2C)cc(OC)c1OC (stereo not drawn)	0.8%
Cn1cc(C(=O)N/N=C/c2c(O)ccc3ccccc23)ccc1=O	-2.9%
Nc1nc(NC(=O)c2ccc(Cl)cc2)nn1-c1ccccc1	4.0%
Nc1cccc2c(=O)c3ccccc3[nH]c12	9.2%
Cc1ccc(C(=O)NC(=S)NCc2cccnc2)cc1C	-6.2%
CCc1ccc(OCC2c3cc(OC)c(OC)cc3CCN2C(=O)Cc2ccc(OC)c(OC)c2)cc1 (stereo not drawn)	8.8%
COc1ccc2nc(NC(=O)C3CCCN(S(=O)(=O)c4cccc5nonc45)C3)sc2c1 (stereo not drawn)	0.2%
O=C(c1ccc2c(c1)OCCO2)C1CCN(S(=O)(=O)c2ccc(F)cc2)CC1	3.6%
Cc1ccc(NC(=O)COC(=O)C2CC(=O)N(Cc3ccccc3)C2)cc1F (stereo not drawn)	-19.9%
O=C(NCCN1CCCC1)c1ccc2c(c1)N(Cc1ccc(F)cc1)C(=O)c1ccccc1S2=O (stereo not drawn)	7.8%
C=C(C)c1cccc(C(C)(C)NC(=O)N2CCOCC2)c1	1.0%

# Part of the list above in order of length of the SMILES, lowest first:
mol	VDR inh
OC1(c2ccc3ccccc3c2)CCN(Cc2ccccc2)C1 (stereo not drawn)	7.7%
COC(=O)c1ccc(C(=O)OC)c(NS(C)(=O)=O)c1	8.0%
Cc1ccc(CNS(=O)(=O)c2c(C)[nH]c(=O)[nH]c2=O)cc1	-1.5%
Cc1ccc(NC(=O)COC(=O)C2CC(=O)N(Cc3ccccc3)C2)cc1F (stereo not drawn)	-19.9%
O=C(c1ccc2c(c1)OCCO2)C1CCN(S(=O)(=O)c2ccc(F)cc2)CC1	3.6%
COc1ccc2nc(NC(=O)C3CCCN(S(=O)(=O)c4cccc5nonc45)C3)sc2c1 (stereo not drawn)	0.2%
O=C(NCCN1CCCC1)c1ccc2c(c1)N(Cc1ccc(F)cc1)C(=O)c1ccccc1S2=O (stereo not drawn)	7.8%

# Next section:
mol	VDR inh
Cc1ccc(CN2C(=O)C3(c4ccccc42)N(c2cccc(F)c2)C(=O)CS3(=O)=O)cc1 (stereo not drawn)	2.2%
CCC(C)(C)n1nnnc1C(c1ccc(C)cc1)N(Cc1ccco1)Cc1cccs1 (stereo not drawn)	0.5%
Cc1ncn2cc(-c3ccc(Cl)cc3Cl)[nH]c(=O)c12	-9.1%
CC(=O)c1ccc(N2CCN(C(=O)c3cc4ccc5cccnc5c4[nH]3)CC2)cc1	7.1%
COc1cc(OC)c(OC)cc1/C=C1\CCC(C2CCCC2)C1=O (stereo not drawn)	-18.2%
CCN(CC(=O)Nc1ccc(S(=O)(=O)N2CCCCC2)cc1)Cc1ccccc1	-4.6%
CCc1ccc(S(=O)(=O)/N=C2/C=C(Sc3ncn[nH]3)C(=O)c3ccccc32)cc1	25.1µM*
Cc1ccc(CNC(=O)C2CCCCC2C(=O)O)cc1 (stereo not drawn)	20.7%
O=C(O)c1cc(-c2ccccc2Cl)n[nH]1	-1.3%
Cc1cc(N/C(=N/S(=O)(=O)c2ccc(F)cc2)c2ccccc2)n(-c2ccccc2)n1	9.3%
COc1ccc(CCC(C)Nc2cccc(F)c2)cc1 (stereo not drawn)	8.6%
CNC(=S)NN(C)c1nc(C)cc(C)n1	-16.0%
O=C(O)C1Cc2ccccc2CN1S(=O)(=O)c1ccccc1 (stereo not drawn)	3.8%
Cc1ccc(S(=O)(=O)N2CCN(C(=O)CN3CCCC3)C2)cc1	-9.4%
COc1ccc(-n2c(NCCN(C)C)nc3sc4c(c3c2=O)CCCCC4)cc1	10.0%
COC(OC)c1ccnc(-c2ccc(OC(=O)c3ccccc3)cc2)n1	-21.6%
O=C(CSCc1cccc(Br)c1)N/N=C/c1ccc2c(c1)OCO2	24.2%
Cc1cc(NC(=O)CSc2ccc(-c3ccccc3)nn2)no1	-4.9%
N#Cc1ccccc1S(=O)(=O)N1CCNS(=O)(=O)c2ccccc21	6.1%
COc1ccc(-c2ccc(CCC(=O)O)n2CC2CCCO2)cc1 (stereo not drawn)	17.1%
Nc1ccc2nc(-c3ccc(-c4nc5ccc(N)cc5[nH]4)cc3)[nH]c2c1	54.4%[activator]
CCOC(=O)c1c(NC(=O)/C=C/c2ccc(OC)c(OC)c2)sc(C(C)=O)c1C	?
S=c1[nH]nc(-c2ccccc2)n1/N=C/c1cccs1	9.9%
CN1C(=O)C2(OCC(C)([N+](=O)[O-])CO2)c2ccccc21 (stereo not drawn)	3.8%
CC(C)(C)OC(=O)C[C@@H]1C/C=C\C[C@@H](CC(=O)N[C@H](CO)Cc2ccccc2)C(=O)NCCOC1=O	-7.2%
Cc1ccc(S(=O)(=O)N2CCOCC2)cc1-c1n[nH]c(=S)n1-c1ccccc1	7.7%
COc1cc(OC)cc(-c2sc3ccc(OC)cc3c2-c2ccc(OCCN3CCOCC3)cc2)c1	-0.7%
COc1ccc(NC(=O)CCN2C(=O)c3ccccc3C2=O)c(OC)c1	-0.7%
CC(C)C(NS(=O)(=O)c1cccc(C(F)(F)F)c1)C(=O)NCc1cccs1 (stereo not drawn)	-16.8%
CC(C)C(C(=O)NC1CCCC1)N(CC1CCCO1)C(=O)CNS(=O)(=O)c1ccc(F)cc1 (stereo not drawn)	-11.3%
O=C(c1cccc(F)c1)N1CCC2(CCCN(C(c3ccccc3)c3ccccc3)C2)CC1	-18.5%
C/C(=N\NC(=S)Nc1c(C)cccc1C)c1cc2ccccc2o1	-20.7%
COCCCN1C(=O)C(=O)/C(=C(/O)c2ccc(OC)cc2)C1c1cccc(OC)c1 (stereo not drawn)	3.6%
Clc1ccccc1OCCn1ccnc1	-1.2%
COc1ccc(CNC(=O)CC2C[C@H](C(=O)N3CCOCC3)[C@@]3(C)c4[nH]c5ccccc5c4CCN3C2=O)cc1OC (stereo partly drawn)	-16.5%
O=C(c1cccc(F)c1)N1CCC2(CCCN(c3ncccn3)C2)CC1	-8.3%
Cc1cccc(C)c1OCc1cc(C(=O)N2CCN(C3CCCC3)CC2)no1	-18.0%
CC1(C)Cc2c(sc(NC(=O)c3ccc4c(c3)OCCO4)c2C(N)=O)C(C)(C)N1	-15.3%
N#C/C(=C\c1ccc[nH]1)C(=O)c1ccccc1	16.3%
CCn1c(CNC(=O)c2ccccc2OC)nnc1SCC(=O)c1ccc(F)cc1	4.4%
CCOc1cc(/C=N/NC(=O)c2ccc(CN3CCOCC3)cc2)ccc1OCc1ccccc1	-17.4%
CC(=O)Nc1ccc(NC(=O)c2ccc(OCc3c(C)noc3C)cc2)cc1	-11.0%
COc1ccc(CNc2ncncc2-c2ccccc2CN(C)C)c(OC)c1	-9.4%
O=C(COC(=O)CCc1nc2ccccc2c(=O)[nH]1)NC1CCS(=O)(=O)C1 (stereo not drawn)	-1.1%
C1CCC[C@H]2CCCN3CC[C@H](CCCCCC[C@@H]4CCCN5CC[C@H](CC1)OC45)OC23	4.2%
CCC(=O)N1CCN(c2ccc(NC(=O)c3ccc4ccccc4c3)cc2)CC1	5.7%
CCOC(=O)c1c(NC(=O)COC(=O)c2ccc(O)cc2)sc(C(=O)NC)c1C	7.3%
Cc1cc(C)c(C#N)c(SCC(=O)N2CCCCC2)n1	-2.7%
Nc1c(C(=O)c2ccc(Br)s2)oc2ccccc12	-6.0%
Cc1nc2scc(-c3ccco3)c2c(=O)n1/N=C/N(C)C	3.2%
CC1CN(CC(=O)Nc2nc(-c3ccc(Cl)cc3)cs2)CC(C)O1 (stereo not drawn)	-8.4%
CN(Cc1ccccc1)c1nc(-c2ccc(F)cc2)cc(C(F)(F)F)n1	-17.0%
Cn1c(SCC(=O)Nc2ccccc2)nc(O)cc1=O	5.1%
CC(C)(C)OC(=O)N[C@H](C(=O)OC(C)(C)C)c1ccc2ccccc2c1	6.7%
Cc1cccn2c(=O)c3cc(C(=O)N4c5ccccc5CC4C)n(C)c3nc12 (stereo not drawn)	-2.0%
CCOC(=O)c1c(C)[nH]c2c1cc(O)c1ccccc12	-10.4%
